# Assay outcomes from PubChem BioAssay.
# CFTR F508del: total CFTR protein upregulators, primary screen, cell-based, HeLa F508del-CFTR, immunofluorescence, viability (AID 1224863) | calls, or highest fold increase where a dose series was run | HeLa F508del-CFTR, immunofluorescence total CFTR, 24 h; by the record results were divided by relative cell number; some inactives read as strong as hits | Cystic fibrosis transmembrane conductance regulator (Homo sapiens) | 10,000 tested, 0.1% active; in the data nearly all actives have a first-pass fold increase above 1.5; a few of its hits are not listed in these tables;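 also: total CFTR protein by anti-CFTR immunofluorescence in fixed cells; first pass at 25 µM or 10 µg/mL by library and series up to twice that; 1 = untreated cells; first-pass hits also needed half or more of the cells alive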
# CFTR F508del fold 25 µM: also measured in CFTR F508del; calls as there; fold increase; measured here: primary screen single dose 25 uM; library dosed in µM
# CFTR F508del fold 10 ug/mL: further read-out of CFTR F508del, marked with its call; fold increase; measured here: primary screen 10 ug/mL
# CFTR F508del viability 25 µM: also measured in CFTR F508del; calls as there; viability, %; measured here: primary viability 25 uM; library dosed in µM;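 0% = killed and 100% = untreated cells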
# CFTR F508del viability 10 ug/mL: second read-out of CFTR F508del, no call of its own (marks repeat the call); viability, %; measured here: primary viability 10 ug/mL;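 0% = killed and 100% = untreated cells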
# The depositor's hits bear a star; i = inactive; . = no result given; + = active, no number; & = joins results of further samples. A portion of the library, so the mix of outcomes need not match the whole.
SMILES,CFTR F508del,CFTR F508del fold 10 ug/mL,CFTR F508del viability 10 ug/mL,others
CC(=O)[C@@]1(O)CC[C@H]2[C@@H]3CCC4=CC(=O)CC[C@]4(C)[C@H]3CC[C@@]21C,i,.,.,CFTR F508del fold 25 µM=0.82;CFTR F508del viability 25 µM=96.0
O=C(COC(=O)C12CC3CC(CC(O)(C3)C1)C2)Nc1ccc([N+](=O)[O-])cc1Cl,i,0.96,105.0,
Cc1[nH]c(C(=O)OCc2csc(-c3ccco3)n2)c(C)c1C(=O)OC(C)C,i,1.01,94.0,
CN1C2CCC1CC(OC(=O)C(CO)c1ccccc1)C2 (stereo not drawn),i,.,.,CFTR F508del fold 25 µM=1.05;CFTR F508del viability 25 µM=83.0
C=CCN(Cc1ccc(Cl)s1)CN1C(=O)C(=O)c2cc3c(cc21)OCCO3,i,1.13,105.0,
COc1c(N2C[C@@H]3CCCN[C@@H]3C2)c(F)cc2c(=O)c(C(=O)O)cn(C3CC3)c12,i,.,.,CFTR F508del fold 25 µM=1.29&1.01;CFTR F508del viability 25 µM=104.0&90.0
Cc1oc(C)c2c1C(=O)NNS2(=O)=O,i,0.92,103.0,
O=[N+]([O-])c1ccccc1N1CCC(c2nc3ccccc3s2)CC1,i,0.94,70.0,
CC(C#N)Sc1nccn1-c1cccc(F)c1 (stereo not drawn),i,0.93,82.0,
C1=CC2CC1CC2CNC1CCN(Cc2ccccc2)CC1 (stereo not drawn),i,1.04,100.0,
COc1ccc(OC)c(C2CCCN2C(=O)c2ccc(=O)[nH]n2)c1 (stereo not drawn),i,0.9,84.0,
CC1CCCCC12NC(=O)N(CC(=O)NCC(=O)NC(C)(C)C)C2=O (stereo not drawn),i,0.9,90.0,
CC(=O)Nc1ccc(C(=O)OCc2cc(C)no2)s1,i,1,102.0,
CN(c1ccc2nnc(C(F)(F)F)n2n1)C1CCCCC1,i,0.93,83.0,
CC(C)C[C@@H](NC(=O)[C@H](Cc1ccccc1)NC(=O)c1cnccn1)B(O)O,+,.,.,CFTR F508del fold 25 µM=2.94*;CFTR F508del viability 25 µM=63.0*
COc1cc(C2C3=C(CCCC3=O)Nc3c2c(=O)n(C)c(=O)n3C)ccc1OCc1ccc(F)cc1 (stereo not drawn),i,0.99,93.0,
Clc1ccc(SCc2nc(N3CCN(c4ncccn4)CC3)c3c4c(sc3n2)CCC4)cc1,i,0.96,89.0,
CONC(=O)c1ccc(N2CCCC2=O)cc1,i,1,100.0,
COc1ccccc1/C=C/C1Nc2ccccc2C(=O)N1C1CCCC1 (stereo not drawn),i,0.93,93.0,
CC(C)C(NC(=O)c1cccs1)C(=O)N1CCN(S(=O)(=O)N2CCCC2)CC1 (stereo not drawn),i,0.96,96.0,
COc1cc(OC)c(CNC(C)c2ccc(F)cc2F)c(OC)c1 (stereo not drawn),i,1.05,103.0,
C=CCNC(=O)CN1CCN(CN2C(=O)CC3(CCCC3)C2=O)CC1,i,1.03,97.0,
O=C(CCNC(=O)C12CC3CC(CC(C3)C1)C2)NCCCCN1CCOCC1,i,1.04,94.0,
CCCn1ccnc1SCC(=O)Nc1sc2c(c1C(N)=O)CCC2,i,1.01,95.0,
CC(C)(C)OC(=O)N1CCCC1C(=O)N1CCN(c2cnccn2)CC1 (stereo not drawn),i,0.96,98.0,

# Following part:
SMILES,CFTR F508del,CFTR F508del fold 10 ug/mL,CFTR F508del viability 10 ug/mL,others
Cn1c(Nc2ccc3c(c2)CCC3)c(C#N)c(=O)n(C)c1=O,i,1.06,94.0,
Fc1cccc(NCc2nc(-c3ccco3)no2)c1,i,0.92,95.0,
CC(CN1c2ccccc2Sc2ccccc21)N(C)C (stereo not drawn),i,.,.,CFTR F508del fold 25 µM=1.07&1.06;CFTR F508del viability 25 µM=102.0&94.0
Cc1ccc2c(c1)CCC2=O,i,0.98,91.0,
O=C(COc1ncnc2c(Cl)cc(Cl)cc12)c1ccc(Cl)s1,i,1.06,93.0,
O=[N+]([O-])c1cc(F)ccc1S(=O)(=O)Nc1c(F)cccc1F,i,0.92,93.0,
O=S(=O)(Nc1ccc(Cl)c(Cl)c1)c1ccc(S(=O)(=O)N2CCCCC2)cc1,i,0.82,95.0,
Cn1cccc1C1CCCN1CC(=O)Nc1sccc1C(N)=O (stereo not drawn),i,1.02,86.0,
CCn1cc(C(=O)O)c(=O)c2cc(F)c(N3CCNCC3)cc21,i,.,.,CFTR F508del fold 25 µM=1.01&1.03&1;CFTR F508del viability 25 µM=99.0&80.0&78.0
CN(Cc1nc2ccccc2s1)Cn1c(=O)n(C)c2ccccc21,i,1.05,107.0,
C#CCN[C@@H]1CCc2ccccc21,i,.,.,CFTR F508del fold 25 µM=0.96;CFTR F508del viability 25 µM=86.0
COC1=CC(=O)C[C@@H](C)[C@]12Oc1c(Cl)c(OC)cc(OC)c1C2=O,i,.,.,CFTR F508del fold 25 µM=0.91;CFTR F508del viability 25 µM=90.0
O=S(=O)(Nc1cnn(CC2CCCO2)c1)c1cccc2nsnc12 (stereo not drawn),i,1.16,96.0,
CC(=O)Oc1cccc(C)c1,i,.,.,CFTR F508del fold 25 µM=1.06;CFTR F508del viability 25 µM=87.0
O=C1C2CCCN2C(=O)N1Cc1cccc(F)c1 (stereo not drawn),i,0.91,92.0,
COc1cc([N+](=O)[O-])ccc1NC(c1ccccc1)c1ccccc1,i,1.1,97.0,
CN(Cc1nccn1C)S(=O)(=O)CCn1cnc2ccccc21,i,1.09,94.0,
CC(C(=O)NCc1ccc(Cl)s1)S(C)(=O)=O (stereo not drawn),i,0.98,85.0,
O=C(CSc1nncs1)NC1CCCCC1,i,1.07,96.0,
O=S(=O)(Nc1ccc2c(c1)OC(F)(F)O2)c1ccccc1,i,1.13,98.0,
Cn1c(-c2ccccc2Cl)nn(CN2CCCC2c2ccccc2)c1=S (stereo not drawn),i,1.01,102.0,
CCn1cnn(CN2CCCC(c3nc4ccccc4s3)C2)c1=S (stereo not drawn),i,1.11,96.0,
CSc1ccc([C@H]2[C@@H](C(=O)O)c3ccccc3C(=O)N2Cc2ccc(F)cc2)cc1,i,1.03,104.0,
O=c1ccc(-n2cncn2)n[nH]1,i,1.21,105.0,
O=c1ccc2cc(S(=O)(=O)Nc3cccc(S(=O)(=O)NC4=NCCC4)c3)ccc2o1,i,1.22,104.0,

# Continuation.
SMILES,CFTR F508del,CFTR F508del fold 10 ug/mL,CFTR F508del viability 10 ug/mL,others
O=c1c2c(ncn2C2CCCC2)n(Cc2ccccc2)c(=O)n1CC(O)c1ccccc1F (stereo not drawn),i,1.03,96.0,
COCCSCC(=O)NCCNC(=O)c1ccco1,i,1,92.0,
CC(=O)O[C@H]1C[C@@H]2CC[C@@H]3[C@H](CC[C@@]4(C)[C@H]3C[C@H]([N+]3(C)CCCCC3)[C@@H]4OC(C)=O)[C@@]2(C)C[C@@H]1[N+]1(C)CCCCC1,i,.,.,CFTR F508del fold 25 µM=0.99&1.06;CFTR F508del viability 25 µM=91.0&99.0
FC(F)(F)c1cc(NCc2nnnn2-c2ccccc2)ccc1Br,i,0.93,81.0,
CC1CCc2c(sc3ncn(CC(=O)N(C(C)C)C(C)C)c(=O)c23)C1 (stereo not drawn),i,0.89,87.0,
CCOC(=O)C1=C(COC(=O)C2=NN(c3ccc(C)c(Cl)c3)C(=O)CC2)NC(=O)NC1CC (stereo not drawn),i,1.11,100.0,
CCOC(=O)C1=C(COC(=O)c2c3c(nc4ccc(C)cc24)CCCC3)NC(=O)NC1C (stereo not drawn),i,0.88,70.0,
Cc1noc(C)c1CN1CCCC(NS(C)(=O)=O)C1 (stereo not drawn),i,1.04,110.0,
CSCCC(=O)Nc1nc(C2CC2)cs1,i,0.89,77.0,
CC(NS(=O)(=O)c1ccc(F)c(F)c1F)c1ccc2c(c1)OCCO2 (stereo not drawn),i,1.07,97.0,
O=C(CN1C(=O)CCOc2ccccc21)Nc1cc2c(cc1Br)OCCO2,i,0.98,100.0,
CC1CCc2c(sc(NC(=O)CSc3n[nH]c(N)n3)c2C(N)=O)C1 (stereo not drawn),i,0.96,82.0,
CC(=O)Nc1nc(C(=O)N(C)C(C)CC(C)C)cs1 (stereo not drawn),i,0.9,90.0,
COc1cc(Br)cc(C)c1N,i,0.88,93.0,
Oc1ccc(OCc2ccccc2)cc1,i,.,.,CFTR F508del fold 25 µM=0.69&1.03;CFTR F508del viability 25 µM=57.0&91.0
C[C@H](C(=O)O)c1cccc(C(=O)c2ccccc2)c1,i,.,.,CFTR F508del fold 25 µM=1.13;CFTR F508del viability 25 µM=94.0
CCCC1NC(=O)N(CN2Cc3ccccc3CC2C(=O)N2CCCC2)C1=O (stereo not drawn),i,0.95,94.0,
Nc1cc(F)cc(C(=O)O)c1N,i,1.03,101.0,
c1ccc(-c2csc3ncnc(NC4CCN5CCCCC45)c23)cc1 (stereo not drawn),i,1.1,105.0,
Cc1cc(C(C)(C)C)cc(C)c1CN(C)S(=O)(=O)c1c(C)noc1C,i,1.04,90.0,
CC(=O)c1c[nH]c(C(=O)NC2CCN(S(C)(=O)=O)CC2)c1,i,0.96,102.0,
CC(C)CCn1c(=O)c2ccccc2n2c(=S)n(CN(C)CC3CC3)nc12,i,0.96,96.0,
C=CCn1c(SC(C)C(=O)OC)nc2sc3c(c2c1=O)CCC3 (stereo not drawn),i,1,99.0,
CCNC(=O)CNC(=O)CN1C(=O)NC2(CCCCCCC2)C1=O,i,1.21,78.0,
Ic1cc(I)c2cccnc2c1OCc1nnc(-c2ccccc2)o1,i,1.08,112.0,

# In the list so far, these have an aryl thioether with sulfur outside any ring:
SMILES,CFTR F508del,CFTR F508del fold 10 ug/mL,CFTR F508del viability 10 ug/mL,others
CC(C#N)Sc1nccn1-c1cccc(F)c1 (stereo not drawn),i,0.93,82.0,
Clc1ccc(SCc2nc(N3CCN(c4ncccn4)CC3)c3c4c(sc3n2)CCC4)cc1,i,0.96,89.0,
CCCn1ccnc1SCC(=O)Nc1sc2c(c1C(N)=O)CCC2,i,1.01,95.0,
O=C(CSc1nncs1)NC1CCCCC1,i,1.07,96.0,
CSc1ccc([C@H]2[C@@H](C(=O)O)c3ccccc3C(=O)N2Cc2ccc(F)cc2)cc1,i,1.03,104.0,
CC1CCc2c(sc(NC(=O)CSc3n[nH]c(N)n3)c2C(N)=O)C1 (stereo not drawn),i,0.96,82.0,
C=CCn1c(SC(C)C(=O)OC)nc2sc3c(c2c1=O)CCC3 (stereo not drawn),i,1,99.0,

# Back to the main list, starting 2 compounds before the break.
SMILES,CFTR F508del,CFTR F508del fold 10 ug/mL,CFTR F508del viability 10 ug/mL,others
CCNC(=O)CNC(=O)CN1C(=O)NC2(CCCCCCC2)C1=O,i,1.21,78.0,
Ic1cc(I)c2cccnc2c1OCc1nnc(-c2ccccc2)o1,i,1.08,112.0,
CC(C)C/C=C/C=C\C(=O)N[C@@H](CC(N)=O)C(=O)N[C@@H]1C(=O)N[C@H](c2ccc(O)cc2)C(=O)N[C@H](CCCN)C(=O)N[C@H]([C@H](C)O)C(=O)N[C@@H](c2ccc(O)cc2)C(=O)N[C@H](c2ccc(O)cc2)C(=O)N[C@@H]([C@H](C)O)C(=O)N[C@@H](Cc2ccccc2)C(=O)N[C@H](CCCN)C(=O)N[C@@H](c2ccc(O[C@@H]3O[C@H](CO)[C@H](O)[C@@H](O)[C@@H]3O[C@@H]3O[C@H](CO)[C@@H](O)[C@H](O)[C@H]3O)cc2)C(=O)NC(C(C)O)C(=O)N[C@@H](c2ccc(O)cc2)C(=O)NCC(=O)N[C@@H](CC(C)C)C(=O)N[C@H](C)C(=O)N[C@@H](c2ccc(O)c(Cl)c2)C(=O)O[C@@H]1C(N)=O (stereo partly drawn),i,.,.,CFTR F508del fold 25 µM=1.04;CFTR F508del viability 25 µM=77.0
CC1CN(S(=O)(=O)N2CCN(C(=O)Cn3cnc4c(cnn4C)c3=O)CC2)CC(C)O1 (stereo not drawn),i,0.96,91.0,
CC1=N/C(=C/c2ccc(F)cc2)C(=O)O1,i,1,93.0,
O=C1OC2(c3ccc(O)cc3Oc3cc(O)ccc32)c2ccccc21,i,.,.,CFTR F508del fold 25 µM=0.98;CFTR F508del viability 25 µM=103.0
Cc1ccc(/C=c2\s/c(=C\C(=O)C(C)(C)C)n(CC(=O)NCCC3=CCCCC3)c2=O)s1,i,1.39,104.0,
N#C/C(=C/c1cnn(Cc2ccccc2)c1)c1nnc2n1CCCCC2,i,0.71,75.0,
CN(Cc1ccc2c(c1)OCO2)S(=O)(=O)c1ccc2c(c1)CCC2,i,0.98,82.0,
